miR-21 FLuc – miR-21 reporter, rising signal; 340,000 tested, under 10 active; Potency, µM (titrated, usually from 38.3 µM), without a hit: top-dose reporter change, positive = more light; HeLa miR-21 FLuc reporter, luciferase, 48 h; AID 2288; active = well fitted rising curve with a large enough effect; inconclusive = small, poorly fitted or top-dose-only effect; inactive = no such curve, though single readings can be large or run the other way;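 further: % of control where 0% means no effect; miR-21 action dims this reporter so a rising signal means less miR-21 action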
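HeLa cells stably expressing CMV-driven firefly luciferase with a downstream miR-21 binding sequence, endogenously expressing miR-21, were treated with titrations (up to about 40uM final) for 48 hours at 37 degree Celsius. Luciferase luminescence was read after lysis.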
Starred values were filed as active, the others as inactive; ? = inconclusive; [ ] = remark or other dose. A portion of the library (hit frequency here may not be typical).

Cc1ccc(NC(=O)c2cccc(NC(=O)N3CCSc4ncccc43)c2)cc1Cl
  miR-21 FLuc: 14%
COc1ccc(OCC(=O)Nc2cc(-c3nc4ccccc4o3)ccc2Cl)cc1
  miR-21 FLuc: -44%
CC(C)(C)C1CCc2c(sc3nnn(CCOc4ccccc4)c(=O)c23)C1 (stereo not drawn)
  miR-21 FLuc: -36%
Nc1c(C(=O)Nc2ccc(C(F)(F)F)cc2)sc2nc(-c3cccs3)ccc12
  miR-21 FLuc: -5%
O=C(Nc1ccc(S(=O)(=O)N2CCC(c3nc4ccccc4s3)CC2)cc1)c1ccc(F)cc1
  miR-21 FLuc: -3%
Cc1cc(C)cc(NC(=O)N2CCC(CN3CCOCC3)CC2)c1
  miR-21 FLuc: -1%
Cc1ccccc1-c1noc(CSc2nnc(-c3ccncc3)n2-c2ccc(F)cc2)n1
  miR-21 FLuc: 1%
O=C(CCCn1c(=O)c2cccn2c2ccccc21)Nc1cc(C(F)(F)F)ccc1Cl
  miR-21 FLuc: -1%
Cc1ccc(OCCCC(=O)Nc2sc3c(c2C(N)=O)CCCC3)cc1
  miR-21 FLuc: -3%
Cc1ccccc1-c1nnc(SCC(=O)N2CCCCC2)o1
  miR-21 FLuc: -46%
Cc1cccc(C(=O)Nc2nnc(S(=O)(=O)N(C)c3ccccc3C)s2)c1
  miR-21 FLuc: -34%
Cc1cc2c(cc1S(=O)(=O)NCc1ccc(F)cc1)OCC(=O)N2
  miR-21 FLuc: -4%
COc1ccc(-c2nc(CSc3nncn4c3cc3oc(C)cc34)c(C)o2)cc1
  miR-21 FLuc: -5%
CC(C)(C)OC(=O)N1CCC(c2c(C(=O)NCc3ccco3)cnn2-c2ccccc2Cl)CC1
  miR-21 FLuc: 0%
CCc1ccccc1NC(=O)Cn1nc(-c2cc(C)ccc2C)c2c(c1=O)CCCC2
  miR-21 FLuc: 8%

CCC(CC)c1nn2c(=O)cc(COc3ccc(NC(=O)c4ccc(C)cc4)cc3)nc2s1
  miR-21 FLuc: -5%
COc1cccc(N2CCN(C3=NS(=O)(=O)C(c4ccc(C)cc4)=C3C)CC2)c1
  miR-21 FLuc: -17%
CCN(CC)CCCNC(=O)c1ccc2nc(N3CCCCC3)sc2c1
  miR-21 FLuc: -52%
Cc1nc(-c2ccc(F)cc2)sc1CCNC(=O)C(=O)Nc1ccc2c(c1)OCCO2
  miR-21 FLuc: -3%
Cc1nc(N2CCOCC2)c2c(C(=O)Nc3cccc(C(F)(F)F)c3)c(C)oc2n1
  miR-21 FLuc: -3%
COc1cccc(C(=O)Nc2cc(-c3ccccc3)nn2-c2ccccc2)c1
  miR-21 FLuc: -4%
CC(C)OCCCN1C(=O)c2[nH]nc(-c3ccccc3O)c2C1c1ccccc1F (stereo not drawn)
  miR-21 FLuc: 28%
NC(=O)C1(N2CCCCC2)CCN(C(=O)Nc2ccc(Cl)c(Cl)c2)CC1
  miR-21 FLuc: 4%
CC(NC(=O)CCn1c(=O)c2cccn2c2ccc(F)cc21)c1ccccc1 (stereo not drawn)
  miR-21 FLuc: -5%
CC1CCCCN1CCCNC(=O)Cn1ncc2c3ccccc3n(Cc3ccccc3F)c2c1=O (stereo not drawn)
  miR-21 FLuc: 0%
O=C(CCS(=O)(=O)c1nc(-c2cccs2)cc(C(F)(F)F)n1)Nc1ccc(Br)cc1
  miR-21 FLuc: ?
COc1ccc(NC(=O)CSC2=Nc3ccccc3C3=NC(CC(=O)NCc4ccco4)C(=O)N23)cc1 (stereo not drawn)
  miR-21 FLuc: -20%
O=C(Cn1c(=O)n(-c2ccccc2)c(=O)c2c3c(sc21)CCCC3)Nc1ccccc1
  miR-21 FLuc: -2%
Cc1ccc(NC(=O)Cn2c(=O)n(-c3ccc(C)cc3)c(=O)c3c2cnn3C)cc1
  miR-21 FLuc: 5%
Cc1ccc(-n2nc(CO)c(C(=O)NCc3cccnc3)n2)cc1
  miR-21 FLuc: 17%

Pulled by compound from the entries so far (two):
CCN(CC)CCCNC(=O)c1ccc2nc(N3CCCCC3)sc2c1
  miR-21 FLuc: -52%
COc1cccc(N2CCN(C3=NS(=O)(=O)C(c4ccc(C)cc4)=C3C)CC2)c1
  miR-21 FLuc: -17%

Later entries
COc1ccc(CCNC(=O)C2CCC(CNS(=O)(=O)c3ccc(C)cc3)CC2)cc1OC (stereo not drawn)
  miR-21 FLuc: -7%
COc1cccc(NC(=O)CN2C(=O)CSc3ccc(S(=O)(=O)N4CCCC4)cc32)c1
  miR-21 FLuc: 4%
CCC(C)NC(=O)CSc1nc2c(sc3ccccc32)c(=O)n1CCc1ccc(OC)c(OC)c1 (stereo not drawn)
  miR-21 FLuc: -9%
Clc1ccccc1-c1nnc(-c2ccccc2CNc2ccccc2)o1
  miR-21 FLuc: -34%
Cc1ccc(C)c(N2CCN(C(=O)c3cnn(-c4ccccc4Cl)c3C3CCN(C(=O)OC(C)(C)C)CC3)CC2)c1
  miR-21 FLuc: 18%
CN1CCN(C(=O)Cn2c(-c3cccs3)cc3ccccc32)CC1
  miR-21 FLuc: -5%
CSCC[C@@H](C(=O)Nc1cccc(F)c1)N1Cc2ccccc2C1=O
  miR-21 FLuc: -1%
CCCc1nn2c(=O)cc(COC(=O)c3ccc(NC(=O)CCc4ccccc4)cc3)nc2s1
  miR-21 FLuc: -6%
CCOc1cccc2cc(-c3nc4ccc(C(=O)O)cc4[nH]3)c(=O)oc12
  miR-21 FLuc: -56%
CCOc1ccccc1N(C)C(=O)c1sc2nc3n(c(=O)c2c1C)CCCC3
  miR-21 FLuc: 2%
Cc1cc(C)cc(Oc2coc3c(CN4CCN(C)CC4)c(O)ccc3c2=O)c1
  miR-21 FLuc: -3%
CCN(CC)C(=O)c1sc2c(c1C)c(=O)n(-c1ccc(Cl)c(Cl)c1)c(=O)n2Cc1ccccc1C#N
  miR-21 FLuc: -7%
COc1cc([N+](=O)[O-])ccc1NC(=O)N1CCC2(CC1)Nc1cc(F)ccc1-n1cccc12
  miR-21 FLuc: -12%
CCOc1ccc(NC(=O)CSc2cn(CC(=O)N3CCCCCC3)c3ccccc23)cc1
  miR-21 FLuc: 7%
CCOc1ccc(NC(=O)c2sc3nc4c(c(-c5ccc(OC)cc5)c3c2N)C(=O)CC(C)(C)C4)cc1
  miR-21 FLuc: -3%

CCOc1ccccc1NC(=O)Cn1c(=O)n(CC(=O)NCc2ccccc2Cl)c(=O)c2sccc21
  miR-21 FLuc: -8%
CCCCN(CCCC)C1=C(C(=O)c2ccccc2)N(C)S(=O)(=O)c2ccccc21
  miR-21 FLuc: 21%
COc1ccccc1N1CCN(C(=O)c2cc3c(-c4ccccc4F)nn(C)c3s2)CC1
  miR-21 FLuc: 19%
CCCC[C@]12Cc3cc(C#N)ccc3C(O1)c1c(c3cc(F)ccc3oc1=O)O2
  miR-21 FLuc: 0%[7.66 µM]
Cc1ccc2c(c1Br)C(O)(CC(=O)c1ccc(F)cc1)C(=O)N2 (stereo not drawn)
  miR-21 FLuc: -3%
Cc1ccc(OCC(=O)N(Cc2ccco2)Cc2ccco2)cc1
  miR-21 FLuc: -2%
COc1ccc(-c2cc(C(F)(F)F)nc(NCCc3ccccc3)n2)cc1
  miR-21 FLuc: -3%
Fc1ccc(-c2noc3ncnc(NCc4cccc(Cl)c4)c23)cc1
  miR-21 FLuc: -2%
CCc1ccc(NC(=O)CC2C(=O)N(c3cccc(OC)c3)C(=O)N2Cc2ccc(F)cc2)cc1 (stereo not drawn)
  miR-21 FLuc: 27%
Cc1ccc(C)c(N2CCN(C(=O)c3cc(C)nc4c3c(C)nn4-c3ccccc3)CC2)c1
  miR-21 FLuc: 8%
COc1ccc(Cl)cc1NC(=O)c1cc(S(=O)(=O)N(C)Cc2ccccc2)ccc1F
  miR-21 FLuc: -8%
COc1ccc(S(=O)(=O)c2c(Nc3ccc(F)cc3)sc(C(=O)c3ccc(C)cc3C)c2N)cc1
  miR-21 FLuc: 14%
COc1ccc(OC)c(NC(=O)C2CCCN(S(=O)(=O)c3ccc4c(c3)CCCC(=O)N4)C2)c1 (stereo not drawn)
  miR-21 FLuc: 12%
COC(=O)c1ccccc1NC(=O)Cn1c(=O)nc(-c2ccccc2)c2cc(Cl)ccc21
  miR-21 FLuc: 2%
O=C1OC(C(=O)Nc2ccc(Cl)c(C(F)(F)F)c2)Cc2ccccc21 (stereo not drawn)
  miR-21 FLuc: -36%

The list continues.
| SMILES | miR-21 FLuc |
| --- | --- |
| Oc1ccc(-c2nc3ccc(Cl)cn3c2Nc2ccc3c(c2)OCO3)cc1 | -18% |
| COc1ccc(C(C)N2CC34C=CC(O3)C(C(=O)OCC(C)C)C4C2=O)cc1 (stereo not drawn) | -7% |
| COc1ccccc1CNC(=O)CCC1N=C2c3ccccc3N=C(SCc3ccc(Cl)cc3)N2C1=O (stereo not drawn) | ? |
| CN1CCN(C(c2ccc(Cl)cc2Cl)c2sc3nc(-c4ccco4)nn3c2O)CC1 (stereo not drawn) | -5% |
| COc1cccc(CNC(=O)Cc2c(C)c3cc4c(C)coc4cc3oc2=O)c1 | 3% |
| Cc1ccc(OCC(=O)Nc2ccc(OCc3cc(=O)n4cccc(C)c4n3)cc2)cc1C | 0% |
| O=C(CCOc1ccccc1)N(Cc1cccnc1)c1nc2c(F)cccc2s1 | 0% |
| Cc1cccc(Oc2coc3cc(OCC(=O)NC4CCCCC4)ccc3c2=O)c1 | 11% |
| COc1ccc(OC)c(S(=O)(=O)N2Cc3ccccc3CC2C(=O)Nc2ccc(Cl)cc2)c1 (stereo not drawn) | -2% |
| Cc1ccc(CCNC(=O)c2cnc3c(-c4ccc(F)cc4)c(C)nn3c2C)cc1 | 0% |
| O=c1c2cc3c(cc2n(Cc2ccccc2)c(=O)n1Cc1nc(-c2ccccc2)no1)OCO3 | 0% |
| COc1ccc(-c2onc(C)c2C)cc1S(=O)(=O)NCC(C)c1ccccc1 (stereo not drawn) | 12% |
| Cc1ccc(Cn2cnc3c(oc4ccccc43)c2=O)cc1 | 0% |
| O=C(CSc1nc2nccnc2c(=O)n1CCc1c[nH]c2ccccc12)Nc1ccc(F)cc1 | 0% |
| COc1cccc(-c2nc(SCC(=O)NCc3ccccc3)c3c(=O)n(C)c(=O)n(C)c3n2)c1 | -6% |
| COc1ccc(C)cc1NC(=O)CN(C)S(=O)(=O)c1ccc2[nH]c(=O)oc2c1 | 2% |
| CCNC(=O)c1ccc(CSc2nc3ccncc3n2Cc2ccc(F)cc2)cc1 | -22% |
| Cc1ccc(NC(=O)CC(c2ccc(F)cc2)N2Cc3ccccc3C2=O)cc1C (stereo not drawn) | 1% |
| COc1ccc(C)cc1-n1c(SCC(=O)NCc2ccco2)nc2c([nH]c3ccccc32)c1=O | 6% |
| COc1ccc(CCNC(=O)c2cc3c(=O)n(C)c4cc(Cl)ccc4c3s2)cc1OC | -1% |
| COc1cc(NC(=O)c2noc3c2CC(C)CC3)c(OC)cc1Cl (stereo not drawn) | 0% |
| Cc1cccc(CSc2cn(CC(=O)N3CCCCCC3)c3ccccc23)c1 | 0% |
| CCOc1ccc(NC(=O)CCCc2nc(-c3cccc(OC)c3)no2)cc1 | 2% |
| CCC1CN(C(=O)N2CCC(C(=O)NCCC3=CCCCC3)CC2)c2cc(C)ccc2O1 (stereo not drawn) | 2% |
| CC(=O)Nc1ccccc1OCc1cc(=O)n2c(C)csc2n1 | -2% |

Ordered by SMILES length (lowest first): part of the list above
| SMILES | miR-21 FLuc |
| --- | --- |
| Cc1ccc(Cn2cnc3c(oc4ccccc43)c2=O)cc1 | 0% |
| CC(=O)Nc1ccccc1OCc1cc(=O)n2c(C)csc2n1 | -2% |
| COc1cc(NC(=O)c2noc3c2CC(C)CC3)c(OC)cc1Cl (stereo not drawn) | 0% |
| Cc1cccc(CSc2cn(CC(=O)N3CCCCCC3)c3ccccc23)c1 | 0% |
| CCOc1ccc(NC(=O)CCCc2nc(-c3cccc(OC)c3)no2)cc1 | 2% |
| Oc1ccc(-c2nc3ccc(Cl)cn3c2Nc2ccc3c(c2)OCO3)cc1 | -18% |
| Cc1cccc(Oc2coc3cc(OCC(=O)NC4CCCCC4)ccc3c2=O)c1 | 11% |
| COc1ccc(-c2onc(C)c2C)cc1S(=O)(=O)NCC(C)c1ccccc1 (stereo not drawn) | 12% |
| Cc1ccc(NC(=O)CC(c2ccc(F)cc2)N2Cc3ccccc3C2=O)cc1C (stereo not drawn) | 1% |
| Cc1ccc(CCNC(=O)c2cnc3c(-c4ccc(F)cc4)c(C)nn3c2C)cc1 | 0% |
| CN1CCN(C(c2ccc(Cl)cc2Cl)c2sc3nc(-c4ccco4)nn3c2O)CC1 (stereo not drawn) | -5% |
| COc1ccc(CCNC(=O)c2cc3c(=O)n(C)c4cc(Cl)ccc4c3s2)cc1OC | -1% |
| Cc1ccc(OCC(=O)Nc2ccc(OCc3cc(=O)n4cccc(C)c4n3)cc2)cc1C | 0% |
| O=C(CSc1nc2nccnc2c(=O)n1CCc1c[nH]c2ccccc12)Nc1ccc(F)cc1 | 0% |
| COc1ccc(OC)c(S(=O)(=O)N2Cc3ccccc3CC2C(=O)Nc2ccc(Cl)cc2)c1 (stereo not drawn) | -2% |
| COc1ccc(C)cc1-n1c(SCC(=O)NCc2ccco2)nc2c([nH]c3ccccc32)c1=O | 6% |
| COc1cccc(-c2nc(SCC(=O)NCc3ccccc3)c3c(=O)n(C)c(=O)n(C)c3n2)c1 | -6% |

(cont.)
| SMILES | miR-21 FLuc |
| --- | --- |
| CSc1ccc(CNC(=O)CN2C(=O)C3CCCCN3c3ccc(C(=O)N4CCCC4)cc32)cc1 (stereo not drawn) | 1% |
| O=C(NC1CC(=O)N(c2ccccc2)C1)c1ccc(S(=O)(=O)N2CCCC2)cc1 (stereo not drawn) | 1% |
| CC(C)Sc1ncc(Cl)c(C(=O)Nc2c(C(=O)Nc3ccccc3)oc3ccccc23)n1 | 2% |
| CCOC(=O)c1sc(N2C(=O)c3oc4ccccc4c(=O)c3C2c2ccc(C(C)(C)C)cc2)nc1C (stereo not drawn) | -4% |
| CC1CCCCN1Cc1c(O)ccc2c(=O)c(-c3ccccc3Cl)c(C(F)(F)F)oc12 (stereo not drawn) | 0% |
| COC(=O)C1CCN(c2csc3ccc(Cl)cc3c2=O)CC1 | -4% |
